From PubChem BioAssay
PINK1 expr mod – A Quantitative High throughput Screen to Identify Chemical Modulators of PINK1 Expression; AID 624263, 2012; Potency, µM (doses to about 76.6 µM), for the others: top-dose activation (PINK1 increase), actives largely listed as activators; 410,000 tested, 0.2% active; PINK1 immunofluorescence, high-content cytometry, 24 h; active = well fitted activation curve with a large enough effect; inconclusive = small, poorly fitted or top-dose-only effect; inactive = flat fitted curve, though single readings scatter; cell line not stated here;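 also: potency is read from the fitted curve at half-maximal effect; % of control where 0% means no effect; nearly all actives have a fitted effect of over 65% in size; a mitochondrial uncoupler was the plate control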
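A stable cell line was treated with compounds at 5 concentrations for 24 hours, with CCCP as control. PINK1 levels and mitochondrial localization were measured by immunofluorescence with mitochondrial, cell and nuclear markers after fixation, read by laser-scanning cytometry.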
ClpP mod – qHTS Assay for Activators of ClpP; ATP-dependent Clp protease proteolytic subunit (Bacillus subtilis (strain 168)), P80244; purified B. subtilis ClpP, FRET peptide cleavage, 20 min; Potency, µM (doses to about 57.5 µM), inactives show top-dose activity change, negative = active; 340,000 tested, 1.9% active; active = well fitted falling curve with a large enough effect; inconclusive = small, poorly fitted or top-dose-only effect; inactive = no such curve, though single readings can be large or run the other way; also: potency is read from the fitted curve at half-maximal effect; the source files actives as falling curves though it sought activators and does not explain the sign; nearly all actives have a fitted effect of over 65% in size; many hits overshoot -100%
Target sequence (P80244 whole entry, looked up): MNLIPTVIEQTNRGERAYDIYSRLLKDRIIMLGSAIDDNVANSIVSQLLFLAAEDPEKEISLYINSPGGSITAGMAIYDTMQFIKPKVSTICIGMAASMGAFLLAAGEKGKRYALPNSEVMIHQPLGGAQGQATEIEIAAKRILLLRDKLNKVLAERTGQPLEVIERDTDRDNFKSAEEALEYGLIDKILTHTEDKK
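FRET quenching reversal measured ClpP activation: 10 microg/mL B. subtilis ClpP at pH 8 with the FRET-FV decapeptide, read at 430 nm after 320 nm excitation. The 20-min minus 0-min signal was scaled between DMSO/no-enzyme wells and ADEP (5.8 microM final).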
gsp agonist – qHTS for Agonist of gsp, the Etiologic Mutation Responsible for Fibrous Dysplasia/McCune-Albright Syndrome: qHTS; AID 624287, 2012; gsp mutant cells, cAMP HTRF, 30 min; control for the full effect not named in the record; Potency, µM (doses to about 76.9 µM), inactives show at the top dose activation (cAMP increase), usual class: activators; 340,000 tested, 0.13% active; active = well fitted activation curve with a large enough effect; inconclusive = small, poorly fitted or top-dose-only effect, or another doubt; inactive = no such curve, though single readings can be large or run the other way; cell line not stated here;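 also: phosphodiesterase inhibitor Ro 20-1724 added with compounds to block cAMP breakdown; potency is read from the fitted curve at half-maximal effect; nearly all actives have a fitted effect of over 60% in size; about a fifth of the inactives were tested at one dose only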
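Cells in DMEM/10% FBS with G418 were pretreated with compounds in DMSO plus […] (300 uM stock) for 30 min at 37C. cAMP was measured by HTRF (cAMP-d2 plus anti-cAMP antibody-K) after 30 min at room temperature.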
Sfp inh – qHTS Assay for Inhibitors of Bacillus subtilis Sfp phosphopantetheinyl transferase (PPTase) | 4'-phosphopantetheinyl transferase ffp (Bacillus subtilis), Q9F4F7 | Biochemical Sfp PPTase activity, qHTS | Potency, µM, for inactives: max response, negative = inhibition, most hits filed as inhibitors | 310,000 tested, 3.5% active | AID 1490, 2009; active = well fitted inhibition curve with a large enough effect; inconclusive = small, poorly fitted or top-dose-only effect, or another doubt; inactive = no such curve, though single readings can be large or run the other way;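 also: the enzyme is Sfp with the accession as filed and its product quenches rhodamine fluorescence; potency is read from the fitted curve at half-maximal effect; 0% = enzyme reaction without inhibitor and -100% = no enzyme wells; top concentration of the series not given in the record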
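With Hepes-Na pH 7.6 buffer containing 10 mM MgCl2, Sfp (15 nM) modified BHQ-2-YbbR (12.5 uM) using rhodamine-CoA (5 uM). Two reads 30 minutes apart at 525/598 nm yielded each well's rate.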
gsp antag – qHTS for Antagonists of gsp, the Etiologic Mutation Responsible for Fibrous Dysplasia/McCune-Albright Syndrome: qHTS. gsp-mutant cells, cAMP HTRF, 30 min; control for the full effect not named in the record. Potency, µM (top dose mostly 76.9 µM), inactives show top-dose activity change, negative = inhibition, most hits filed as inhibitors. 340,000 tested, 0.4% active. AID 624288, 2012; active = falling curve of any shape with a large fitted effect; inconclusive = falling curve, mostly with a smaller effect; inactive = flat or rising curve; cell line not stated here;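 also: intracellular cAMP measured with PDE inhibitor Ro 20-1724 present during compound exposure; potency is read from the fitted curve at half-maximal effect; % is scaled to controls: 0 for no effect and ±100 for the full control effect; nearly all actives have a fitted effect of over 65% in size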
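G418-selected cells were plated in DMEM/10% FBS for 16-24 h at 37C, then treated with compounds plus the PDE inhibitor […] (300 uM solution added) for 30 min at 37C. Intracellular cAMP was measured by HTRF after 30 min lysis at room temperature.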
Menin-MLL FL inh – qHTS Assay for Inhibitors Targeting the Menin-MLL Interaction in MLL Related Leukemias: Competition With Fluorescein Labeled MLL-derived Peptide; FP activity change, % at 61.4 µM; 290,000 tested, under 10 active; Fluorescence polarization, fluorescein-MLL peptide displacement from menin; inconclusive = falling polarisation curve, or a change in total fluorescence; inactive = total fluorescence flat and polarisation flat or rising; no compound was filed as active; the % refers to the polarisation; negative = inhibition;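 also: % of control where 0% means no effect; inhibitors lower the polarisation; unlabelled MLL peptide was the positive control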
D2 agonist – Beta-Arrestin HTS for Positive Allosteric Modulators of the Human D2 Dopamine Receptor: Agonists. DiscoveRx PathHunter D2 beta-arrestin, luminescence, 90 min; 100% = 57 uM dopamine signal. activation, % (concentration not given with the values). 360,000 tested, 0.084% active. D(2) dopamine receptor (Homo sapiens), P14416. AID 624465, 2012; in the data active = activation above about 40%; inconclusive = about 15% to 40%; inactive = below about 15%; also: compound concentration not given in the record; the text of the record calls up to 30% inactive
Target sequence (P14416 whole entry, looked up): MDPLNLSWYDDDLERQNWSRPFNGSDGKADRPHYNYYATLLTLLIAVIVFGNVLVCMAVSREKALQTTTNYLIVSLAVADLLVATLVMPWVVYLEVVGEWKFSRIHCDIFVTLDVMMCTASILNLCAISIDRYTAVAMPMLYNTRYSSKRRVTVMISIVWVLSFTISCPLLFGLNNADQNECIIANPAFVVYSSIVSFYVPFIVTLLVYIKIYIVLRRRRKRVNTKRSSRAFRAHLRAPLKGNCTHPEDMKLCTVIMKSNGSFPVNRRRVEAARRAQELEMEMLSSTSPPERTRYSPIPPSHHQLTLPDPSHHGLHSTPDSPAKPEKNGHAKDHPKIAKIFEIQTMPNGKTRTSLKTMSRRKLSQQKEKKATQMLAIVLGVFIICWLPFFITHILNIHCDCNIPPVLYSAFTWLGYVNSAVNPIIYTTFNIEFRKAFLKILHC
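DiscoveRx PathHunter D2 beta-arrestin cells (2,100/well) attached overnight, then compound-stimulated 90 min at 37 C in HBSS/10 mM HEPES/0.1% Tween-20 buffer; beta-galactosidase complementation read by luminescence after 1 h at ambient temperature. Dopamine 57 uM final (EC100) as control.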
Active calls of the source: *; ? = inconclusive; . = not tested or not shown; & = joins results of further samples; [ ] = dose if it differs, or a comment.

Molecule | PINK1 expr mod | ClpP mod | gsp agonist | Sfp inh | gsp antag | Menin-MLL FL inh | D2 agonist
C[C@H](CO)N1C[C@H](C)[C@@H](CN(C)S(=O)(=O)c2ccccc2)Oc2ccc(NC(=O)Nc3ccccc3)cc2C1=O | -0.8% | -2.0% | . | . | 2% | . | 8.8
COc1ccc(NC(=O)C2=C(C)NC(=S)NC2c2ccc(O)c(OC)c2)cc1 (stereo not drawn) | 3.4% | . | 6% | -1% | 4% | 1.2 | 0.6
CNC(=O)c1ccccc1NC(=O)c1c(O)c2c([nH]c1=O)CCCC2 | -0.6% | -1.1% | -4% | -28% | -3% | 6.8 | 1.2
COc1ccc(/C=C\C(=O)O[C@@H]2C(O)C(O[C@@H]3OC(C)[C@H](O[C@@H]4OCC(O[C@H]5O[C@H](CO)[C@@H](O)C(O)C5O)C(O)C4O)C(O)C3O)[C@H](OC(=O)[C@]34CCC(C)(C)C[C@@H]3C3=CCC5[C@@]6(C)CC(O)C(O[C@@H]7OC(CO)C(O)[C@H](O)[C@H]7O)[C@@](C)(C(=O)O)C6CC[C@@]5(C)[C@]3(CO)CC4)O[C@H]2C)cc1 (stereo partly drawn) | -1.9% | -1.5% | . | . | ? | . | 4.3
Cc1nc2c([N+](=O)[O-])c(C)c(C)cc2[nH]1 | -1.0% | . | 6%[15.4 µM] | 15% | -16% | -0.3 | -0.9
CC1CCN(CCCOc2ccc(OCc3ccccc3)cc2)CC1 | 1.4% | -1.1% | -3% | -18% | 21% | -0.4 | -9.2
Cc1ccc(C(=O)N2CCc3ccccc32)o1 | 2.6% | -2.9% | -21% | -1% | 1% | 1.6 | -2.3
CCCCC1=CC2=C(c3ccco3)C(=O)C(C)(OC(=O)c3ccc(OC)cc3)C(=O)C2=CN1CCOC (stereo not drawn) | 2.1% | -1.4% | . | -7%&-22% | 0% | -14[11.7 µM] | -6.9
COc1ccc(-c2cc(C(F)(F)F)nc(-n3cc(Br)cn3)n2)cc1 | 0.9% | ? | ? | 22µM* | 0% | -3.3 | -2.6
CC(C)(C)N(NC(=O)c1ccccc1)C(=O)c1ccc(C(=O)N(NC(=O)c2ccccc2)C(C)(C)C)cc1 | 16% | 2.5% | -40%[inhibitor] | 13% | 11% | . | 3.1
CCOc1ccccc1NC(=O)C(OC(=O)c1cnc(C)cn1)c1ccccc1 (stereo not drawn) | -0.4% | -0.4% | ? | . | . | . | 11
COc1ccccc1CN1CC(C(=O)NCCSc2nnnn2C)CCC1=O (stereo not drawn) | 1.4% | ? | 3%[15.4 µM] | 22% | 13% | . | -2.6
O=S(=O)(Nc1ccc(-c2nc3cccnc3s2)cc1)c1ccccc1F | 5.8% | . | 12%[15.4 µM] | 14% | -5% | 4.3 | 4.8
CN(C)Cc1ccccc1-c1nccc(Nc2ccc(F)cc2)n1 | 1.2% | . | . | 11% | . | -0.1 | .
CS(=O)(=O)Nc1ccccc1Oc1ccccc1 | 3.9% | -2.7% | ? | 9% | 6% | 3.6 | -1.7
Cc1c(C(=O)Nc2ccc(-n3cnnn3)cc2)oc2ccccc12 | 1.6%[38.3 µM] | -9.8% | -20% | -10% | -2% | 1.0 | 1.4
CCOc1cc(C2C3=C(CCCC3=O)N(C)C3=C2C(=O)CCC3)cc(Cl)c1O | 0.4% | 0.8% | ? | -3% | -2% | 1.3 | 0.9
O=C(NCCC1=CCCCC1)C(=O)NCC1OCCCN1S(=O)(=O)c1ccccc1 (stereo not drawn) | 2.6% | 1.3% | 0% | 0% | 4% | -2.1 | 2.4
COc1ccc(-c2[nH]nc3oc(=O)c(CCO)c(C)c23)cc1 | 0.9% | . | -26% | 0% | -10% | -0.9 | 1.0
S=c1[nH]ncn1/N=C/c1cccc(Oc2ccccc2)c1 | -0.5% | -1.9% | -5% | -20% | 2% | 6.6 | 0.9
CC(C)NC(=O)c1cc2c(s1)CCCC2 | -0.9% | -0.9% | -5% | 12% | 8% | 1.3 | 0.1
Cc1ccc(S(=O)(=O)N2C[C@H]3[C@H]4C(=O)N(c5ccccc5)C(=O)[C@H]4C[C@H](OC(=O)NC4CC4)[C@@]3(O)C2)cc1 | 0.5% | -0.1% | ? | . | . | . | -9.9
COc1cccc(CNC(=O)Cn2c(=O)c3cccn3c3ccccc32)c1 | -0.5% | -3.4% | -63%[inhibitor] | -21% | 3% | . | 3.6
CCN1CCN(c2c(C(=O)c3ccc(OC)cc3)cnc3ccccc23)CC1 | -2.6% | -2.9% | 22% | 18% | 0% | 0.5 | -1.7
O=C(CN(C(=O)CNC(=O)c1cccs1)c1ccc2c(c1)OCCO2)NC1CCCC1 | 1.8%[38.3 µM] | -0.9% | 12% | 14% | 2% | 1.6 | -2.0
Cc1ccc(Nc2c([N+](=O)[O-])c(=O)oc3ccccc23)cc1 | -1.9% | -1.4% | 8%[15.4 µM] | 3% | -9% | -0.5 | -6.8
OC(c1ccccc1)c1cccnc1 (stereo not drawn) | 3.5% | 0.4% | 17% | 10% | 3% | 2.4 | -3.0
Cc1ccc(C(=O)CCC(=O)CCC(=O)O)cc1 | 3.2%[38.3 µM] | 0.1% | -3% | . | 4% | . | -0.6
CC1Cc2cc(/C(O)=C3/C(=O)C(=O)N(Cc4cccnc4)C3c3cccc(O)c3)ccc2O1 (stereo not drawn) | 0.9% | 0.4% | ? | 3% | 2% | . | -1.7
COc1ccc(CCn2nnnc2C(c2ccc(C)cc2)N2CCN(C)CC2)cc1OC (stereo not drawn) | -0.4% | -0.7% | 0% | 6% | 3% | 5.3 | -0.9

Compound profiles, as listed above.
`CCCCC1=CC2=C(c3ccco3)C(=O)C(C)(OC(=O)c3ccc(OC)cc3)C(=O)C2=CN1CCOC` (stereo not drawn) is listed with PINK1 expr mod = 2.1%; ClpP mod = -1.4%; gsp agonist = .; Sfp inh = -7%&-22%; gsp antag = 0%; Menin-MLL FL inh = -14[11.7 µM]; D2 agonist = -6.9
`Cc1ccc(C(=O)CCC(=O)CCC(=O)O)cc1` is listed with PINK1 expr mod = 3.2%[38.3 µM]; ClpP mod = 0.1%; gsp agonist = -3%; Sfp inh = .; gsp antag = 4%; Menin-MLL FL inh = .; D2 agonist = -0.6

(further entries)
Molecule | PINK1 expr mod | ClpP mod | gsp agonist | Sfp inh | gsp antag | Menin-MLL FL inh | D2 agonist
Cc1ccc(C(=O)NC(=S)Nc2ccc(-c3cc4ccccc4oc3=O)cc2)c(C)c1 | 11% | 8.4% | 20µM* | 14% | 7% | 1.4 | 1.9
CC(C)n1nnnc1SCC(=O)NNC(=O)C1CCCCC1 | . | -7.4% | 1% | 11% | 4% | 0.7 | -2.6
COc1ccc(-n2c(Cn3c(=O)sc4ccccc43)nnc2SCC(N)=O)cc1 | 1.3% | -0.6% | 13% | 11% | 3% | 1.6 | -3.5
CCCCCCNC(=O)c1cccc(-c2ccc(C)c3ccccc23)n1 | ? | ? | -8% | -16% | -11% | 0.1 | -2.1
CCCCNC(=O)C1CC(=O)N(CCc2ccc(C)cc2)C1 (stereo not drawn) | 1.5% | . | 8% | 8% | -2% | 7.6 | -4.3
O=C(NCC1CCCO1)NC1CCCCC1 (stereo not drawn) | -0.8% | 0.0% | -16% | 8% | 12% | 9.4 | 2.2
CCOC(=O)c1cnc2ccc(C(=O)OC)cc2c1Nc1ccc2c(c1)OCCO2 | 7.8%[38.3 µM] | -0.6% | -8% | -6% | 2% | -0.6 | 1.9
CC(=NNc1ccccc1)C(C)=NNc1ccccc1 | 1.0% | 2.7% | -65%[inhibitor] | . | 10% | . | -0.8
Cc1ccnc(NS(=O)(=O)c2ccc(NC(=O)c3ccc(S(=O)(=O)N4CCCC4)cc3)cc2)n1 | -0.7% | -2.4% | 9% | 6% | -8% | 0.8 | 2.7
COc1cc(F)ccc1-c1csc(C(C)(NC(C)=O)c2ccccc2)n1 (stereo not drawn) | 2.4% | -0.7% | . | . | . | . | -2.2
CC1(C(=O)O)CCN1C(=O)c1cccnc1Oc1ccccc1 (stereo not drawn) | 0.8% | 0.8% | . | . | . | . | -2.4
Cc1c(C#N)c(N)nc2c3c(sc12)NC(=O)CC3c1ccc(Cl)cc1 (stereo not drawn) | -2.5% | 16µM* | ? | 4% | 8% | 8.8 | 3.4
CS(=O)(=O)c1ccc(Cl)c(NC(=O)CN2CCN(C(=O)c3cccs3)CC2)c1 | -3.7% | . | -19% | . | -3% | . | 0.9
O=C(C[C@@H]1C/C=C\C[C@@H](Cc2ccc(F)cc2)C(=O)OC[C@@H](Cc2ccccc2)NC1=O)N[C@H](CO)Cc1ccccc1 | 3.0% | -0.4% | . | . | 2% | . | -0.7
CC(C)=CC(=O)NCc1c(Cl)cccc1-n1cccc1 | -0.8%[38.3 µM] | -2.1% | -2% | 16% | 0% | 0.2 | 0.7
COc1ccc2cc3c(N)nn(C(=O)C4CCC(C(C)(C)C)CC4)c3nc2c1 (stereo not drawn) | 1.0% | -1.3% | -1% | 2% | 1% | 2.6 | -3.7
COc1cc(CNC2CCCCCC2)cc(OC)c1 | ? | 0.2% | -1% | -4% | 8% | 7.2 | -0.9
O=C(COC(=O)c1cccc(N2C(=O)C3CC=CCC3C2=O)c1)c1ccccc1 (stereo not drawn) | -0.2% | -6.4% | 5%[15.4 µM] | 3% | -6% | -1.2 | -1.1
